# Bfl-1 A1 inh: inhibitors of the anti-apoptotic protein A1, read as caspase activation. MEF A1-2A-BIM cells, Caspase-Glo 3/7 luminescence, 3 h; percent of clofoctol response, vehicle zero. caspase activation, % (concentration not given with the values). 330,000 tested, 0.066% active;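 active means over half of replicate activation scores above 10%, or exactly half above 10 with the replicate mean above 10; inconclusive means replicate mean below 10 yet half the replicates above 10; inactive means over half of replicates below 10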;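 further: wells of about 30 µL received 50 nL stock; many hits fall short of the cut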
# RanGTP-Impb inh: disruptors of Ran-importin-beta complex formation – biochemical, FRET, CFP-Ran, YFP-importin-beta, homogeneous, primary screen | cell-free CFP-Ran/YFP-importin-beta FRET ratio | inhibition, % (no concentration beside the values) | 300,000 tested, 1.1% active;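 active means most replicates above 15%; inconclusive means exactly half above 15%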;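 further: 0% = DMSO wells and 100% = Ran loaded with GDP instead of GTP; wells of about 40 µL received 100 nL stock; the first replicate is given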
# Calb FLC: C. albicans growth modulation with fluconazole | C. albicans CaCi-2 (fluconazole-resistant clinical isolate) + fluconazole, Alamar Blue growth, 48 h | AID 1979 | 300,000 tested, 0.57% active | growth inhibition, % (test concentration not listed);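 active means most replicates above 75%; inconclusive means exactly half above 75%; inactive means most below 75%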;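 further: all wells also contain fluconazole at 8 µg/ml as a sub-toxic cotreatment; 0% = median of DMSO wells and 100% = median of geldanamycin control wells; wells of about 8 µL received 7.5 nL stock; the first replicate is given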
# T cruzi repl: T. cruzi replication inhibition; 300,000 tested, 1.4% active; T. cruzi beta-gal in NIH3T3, luminescence, 90 h; inhibition, % (test concentration not listed); AID 1885;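 active means mean inhibition across valid replicates above about 55%, limit read from the data; inconclusive means mean below that limit but half or more replicates reach it; inactive means mean below it, under half of replicates reach it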;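 further: signal also drops with host cell toxicity which is not excluded here; 0% = plate median of DMSO wells and 100% = zero luminescence signal; higher percent means less beta-gal luminescence so fewer parasites; stock transfer was 50 nL into about 50 µL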
# Vif A3G: HIV-1 Vif–A3G interaction blockers – biochemical, TR-FRET, GST-Vif 1-94, biotin-A3G peptide, dose response retest, primary screen (AID 1117319). TR-FRET GST-Vif / biotin-A3G peptide binding; higher % means a stronger effect; test concentration not given here; strong numbers were not always called active. one-dose inhibition, %; IC50 in µM for titrated hits. 260,000 tested, 0.57% active;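 active means above the screen mean plus three standard deviations and confirmed in dose response; inconclusive means results disagree or hit not tested in dose response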;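 further: Vif residues 1-94 fused to GST binding biotinylated APOBEC3G peptide 110-148; 0% = full assay without inhibitor and 100% = GST in place of GST-Vif; retest series ran down from 100 µM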
# AF4-AF9 inh: MLL-AF4/AF9 protein interaction inhibition | AID 651704 | 350,000 tested, 0.47% active | AlphaScreen, biotin-AF4 peptide binding to FLAG-AF9 | inhibition, % at 10 µM;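 active means every replicate reaching a set inhibition limit, whatever the replicate mean, cut at about 25% in these data; inconclusive means mean inhibition reaches that limit but some replicates miss it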;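 further: 0% = plate neutral control median and 100% = total signal loss; the record names both 10 and 1 µM as test concentration; the first replicate is given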
# Target sequence (P42568 whole entry, looked up): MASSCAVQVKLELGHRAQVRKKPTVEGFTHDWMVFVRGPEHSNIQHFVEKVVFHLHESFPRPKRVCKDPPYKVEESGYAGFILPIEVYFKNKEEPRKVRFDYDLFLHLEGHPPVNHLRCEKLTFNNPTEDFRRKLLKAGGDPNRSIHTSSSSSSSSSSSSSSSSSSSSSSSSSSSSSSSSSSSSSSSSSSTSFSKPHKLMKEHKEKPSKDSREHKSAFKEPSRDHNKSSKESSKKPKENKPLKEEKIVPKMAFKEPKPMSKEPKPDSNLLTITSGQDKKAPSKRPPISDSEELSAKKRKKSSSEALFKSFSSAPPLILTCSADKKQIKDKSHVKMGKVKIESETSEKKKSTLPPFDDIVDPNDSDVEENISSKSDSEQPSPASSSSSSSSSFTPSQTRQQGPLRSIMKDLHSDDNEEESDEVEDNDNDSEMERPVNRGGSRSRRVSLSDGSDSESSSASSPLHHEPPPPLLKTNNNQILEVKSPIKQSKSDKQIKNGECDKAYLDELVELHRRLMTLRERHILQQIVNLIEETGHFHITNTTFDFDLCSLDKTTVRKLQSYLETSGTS
# Beta apoptosis: blocks beta cell apoptosis | protection from apoptosis, % (no concentration beside the values) | 300,000 tested, 0.8% active | INS-1E cytokine-induced death, ATP luminescence, 48 h; percent of positive-control rescue, neutral wells zero | AID 435005;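 active means all replicates at 75% or more, or half of them and the mean; inconclusive means half reach 75% but not the mean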;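 further: 0% = cytokine-treated negative control wells and 100% = positive control rescue; higher means more ATP so stronger rescue from cytokine killing; wells of about 40 µL received 100 nL stock; the first replicate is given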
# rRNA inh HTS: selective bacterial rRNA inhibition in E. coli | E. coli WT GFP vs humanized-ribosome RFP mutants, fluorescence, 24 h; hits give low values; DMSO median 0, no signal -100 | GFP signal change (wild-type ribosome), % (test concentration not listed) | 350,000 tested, 1.6% active | AID 720706;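 active means significant combined selectivity score with lowered wild-type GFP, culture density cut under 30%, mutant RFP and density less affected; inactive means any of these conditions unmet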; further: one replicate is shown; some compounds called inactive have numbers as strong as hits
# rRNA inh HTS OD600: also measured in rRNA inh HTS; calls as there; OD600 change, %; measured here: OD600 growth;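 optical density of the mix in the first replicate; 0 = DMSO median and -100 = no signal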
# rRNA inh HTS RFP: recorded beside rRNA inh HTS, whose call it bears; RFP signal change, %; measured here: RFP humanized mutant strains;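 first replicate; 0 = DMSO median and -100 = no signal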
# * marks the source's active call; other numbers are inactive results; ? = inconclusive; nt = not tested or not shown.
SMILES,Bfl-1 A1 inh,RanGTP-Impb inh,Calb FLC,T cruzi repl,Vif A3G,AF4-AF9 inh,Beta apoptosis,rRNA inh HTS,rRNA inh HTS OD600,rRNA inh HTS RFP
C[C@@H](C(=O)NCc1ccccc1)N1C(=O)C2CC=CCC2C1=O (stereo not given in full),1.6,0.4,-14,-8,11%,nt,-3,nt,nt,nt
CCN1CCCC1CNC(=O)CN1C(=O)COc2ccc(C)cc21 (stereo not given),0.7,4.7,-6,-3,-7%,3.9,-10,1,2,-1.4
COc1cc(S(=O)(=O)N2CCN(c3ccccc3)CC2)ccc1F,-0.9,0.4,-16,-9,nt,1.1,-14,5,3,0.9
O=C(CNC(=O)c1ccccc1)Nc1cccc(C(F)(F)F)c1,-0.8,0.9,-16,-12,11%,nt,nt,nt,nt,nt
O=C(Nc1ccc(NC(=O)c2ccccc2F)cn1)c1ccco1,-5.4,2.0,2,-19,nt,-2.2,2,-1,-6,-2.0
COc1ccc(N(C(=O)c2snc(C(N)=O)c2N)C(C(=O)NCc2ccccc2)c2ccc(O)cc2)cc1 (stereo not given),nt,3.8,8,7,-3%,3.3,nt,-5,-13,7.6
CN(Cc1ccccc1)CC(O)COc1ccc(CNCc2cc3ccccc3s2)cc1 (stereo not given),-0.4,3.9,-6,19,nt,6.7,9,-3,-9,2.4
Cc1sc2ccccc2[n+]1CC(=O)O,0.3,-0.1,1,-29,nt,nt,-2,25,14,3.0
CCCCC(c1nnnn1C1CCCC1)N1CCN(C(=O)c2ccco2)CC1 (stereo not given),-0.1,-0.3,-11,8,6%,nt,-7,nt,nt,nt
CCCCC(=O)Nc1cccc(C(C)O)c1 (stereo not given),0.3,-3.2,31,10,1%,-0.8,2,10,9,1.2
CC1(C)CC2CC(C)(CN2S(=O)(=O)c2cccc(N)c2)C1 (stereo not given),2.0,2.0,0,45,27%,nt,-2,nt,nt,nt
Nc1nncn1C(=O)CCc1ccccc1,1.2,7.8,3,4,2%,nt,-7,nt,nt,nt
CCN(CC)C(=O)c1nc[nH]c1C(=O)N1CCC(C)CC1,1.1,nt,nt,nt,9%,-0.9,-6,-2,4,-0.9
Cc1ccc(-c2nnn(CC(=O)N(Cc3cccs3)C(C(=O)NC3CCCC3)c3ccco3)n2)o1 (stereo not given),0.6,4.2,-7,14,3%,nt,1,nt,nt,nt
Cc1ccc(S(=O)(=O)Oc2ccc(C3C4=C(CCCC4=O)OC4=C3C(=O)CCC4)cc2)cc1,-1.4,1.4,-2,15,-4%,nt,4,nt,nt,nt
CCc1ccc(CCC(=O)Nc2ccc(S(N)(=O)=O)cc2)o1,-1.1,4.0,5,-13,68%,nt,0,nt,nt,nt
CN(C(=O)c1ccc(NC(=O)Cc2cccc(NC(=O)C3CCN(C(=O)CCc4ccccc4)CC3)c2)cc1)C1CCCC1,-0.3,nt,nt,nt,nt,-1.1,3,-5,-12,1.0
CCOC(=O)c1cnc(SCc2cccc3ccccc23)nc1N,-0.4,-1.5,-3,11,5%,nt,0,nt,nt,nt
COc1ccc(/C=C/C(=O)NCc2cnn(C)c2C)cc1COc1ccc(Br)cc1,1.0,-3.1,-5,-3,-5%,4.6,-5,-24,-24,15
CC1CN(c2nc(Nc3ccccc3)nc(N)c2[N+](=O)[O-])CC(C)O1 (stereo not given),0.5,-2.4,-25,11,13%,nt,-10,-35,-34,-0.5
CC(C)C(C(=O)NCC1CCCO1)N(Cc1cccs1)C(=O)CNS(=O)(=O)c1ccccc1 (stereo not given),-0.4,1.3,3,7,3%,-2.0,-5,0,1,0.2
Cc1ccnc(NS(=O)(=O)c2ccc(NC(=O)c3ccc(S(=O)(=O)N4CCOCC4)cc3)cc2)n1,-0.3,3.4,-6,-14,26%,0.5,nt,10,2,-7.9
O=C(Nn1c(=S)[nH]c2ccccc2c1=O)c1ccncc1,0.4,-2.9,2,1,14%,nt,-5,3,16,-2.0
Cc1sc2ncnc(N3CCN(S(=O)(=O)c4ccc(C(C)(C)C)cc4)CC3)c2c1C,?,nt,nt,nt,nt,1.4,124*,9,10,1.6
Cc1cccc(NC(=O)NCC(c2cccnc2)N2CCOCC2)c1 (stereo not given),-0.3,-0.6,4,-8,30%,nt,-1,nt,nt,nt
CCC(C)NC(=O)c1n[nH]c(=O)c2ccccc12 (stereo not given),0.8,0.7,23,-12,-4%,nt,7,nt,nt,nt
O=C(Nc1ccncc1)Nc1ccc(F)cc1F,-4.7,-2.5,-1,43,1%,-5.7,4,11,10,-7.0
COC(=O)c1sccc1NC(=O)c1ccc(C)cc1,-0.4,3.6,42,-11,-31%,-3.8,-1,3,8,-0.4
Clc1ccc(CN2CCN(/N=C/c3cccnc3)CC2)cc1,0.1,1.9,-3,-6,26%,3.0,0,-5,2,-2.0
CCOc1ccc(S(=O)(=O)NCCC(=O)NC2CCCCC2)cc1,0.7,1.9,-4,-11,-3%,-1.3,1,8,9,-0.7
Cc1ccc(-c2nn3nnnc3c3ccccc23)cc1C,0.6,-2.6,-5,3,-12%,nt,-1,nt,nt,nt
COC(=O)c1c(C(=O)OC)c(-c2ccc(C)cc2)n2c1CS(=O)C2 (stereo not given),1.1,3.4,8,-8,-8%,nt,2,nt,nt,nt
O=C(c1cc(=O)[nH]c2ccccc12)N1CCN(c2ccccc2)CC1,0.0,-0.9,-4,-6,6%,6.7,-2,3,0,0.3
Cc1nn(CCCC(=O)NC2CCC(C)CC2)c(=O)c2nn(-c3ccccc3)c(C)c12 (stereo not given),-0.9,2.5,2,9,nt,-0.6,0,10,10,-2.6
O=[N+]([O-])c1cncc([N+](=O)[O-])c1Nc1cccc(O)c1,-1.1,5.0,9,12,nt,-1.0,12,-26*,0.6*,0.2*
CC1CCCCC1NC(=O)COc1ccc(-n2cnnn2)cc1 (stereo not given),-0.7,5.0,-13,5,23%,nt,-2,nt,nt,nt
CCC(=O)c1ccc(N2CCN(C(=O)c3cccc(F)c3)CC2)c(F)c1,0.6,-1.9,-5,6,-10%,-1.1,4,-8,-15,-5.8
COc1ccc(CCNC(=O)c2cc(S(=O)(=O)N(C)C)ccc2N2CCCC2)cc1,0.0,?,-1,1,nt,1.9,-4,-4,-6,2.6
Cc1nc(N2CCN(C)CC2)[nH]c(=O)c1Cc1cccc2ccccc12,-0.8,-2.1,0,11,-3%,nt,-6,nt,nt,nt
O=c1c2[nH]c3cccc(Cl)c3c2ncn1Cc1ccncc1,0.2,nt,17,nt,11%,nt,-5,nt,nt,nt
CCN(CC)C(=O)CSc1nsc(SCC(=O)N(CC)CC)c1C#N,-0.7,nt,nt,nt,2%,nt,4,8,10,-1.3
O=C(NCc1cccs1)C1CC(=O)N(C2CCCC2)C1 (stereo not given),0.4,-2.5,-2,0,-5%,nt,-11,-1,-5,-3.0
CCOCCCn1c(=S)[nH]c2cc(C(=O)N3CCOCC3)ccc2c1=O,-0.8,-1.8,3,-3,2%,nt,-1,nt,nt,nt
COCC(C)n1c(C)cc(C(=O)COC(=O)CN=C2NS(=O)(=O)c3ccccc32)c1C (stereo not given),-0.5,-3.0,14,-4,-4%,4.8,5,9,0,0.1
O=C(COC(=O)c1cc(Cl)ccc1O)NNC(=O)c1ccccc1F,-0.4,nt,nt,nt,0%,-2.4,-3,-1,15,-4.0
O=C(Cc1cc(=O)[nH]c(=O)[nH]1)NCc1ccccc1,-0.5,0.3,2,-9,-5%,0.5,nt,6,13,-0.7
CCOc1ccc(NC(=O)CN(C)C(=O)c2ccc(C)o2)cc1OCC,0.0,6.5,4,10,-4%,5.7,-4,-2,-6,1.4
COc1ccc(C(C)NC(=O)C23CC4CC(CC(C4)C2)C3)cc1 (stereo not given),-1.1,-3.0,-10,-1,nt,-2.3,nt,15,7,2.3
Cc1ccc(CSc2nnc3nc(C)cc(C)n23)cc1,-1.0,0.1,-1,1,0%,nt,4,nt,nt,nt
O=C1Nc2ccc(F)cc2C12OCCO2,1.6,4.6,-8,-7,nt,2.5,0,17,10,3.0
Cc1ccc(OCC(=O)NCC(=O)Nc2ccc(F)c(F)c2F)c([N+](=O)[O-])n1,1.1,-3.5,4,9,nt,-11,-3,nt,nt,nt
Cc1[nH]c(=O)[nH]c(=O)c1S(=O)(=O)Nc1ccc(F)c([N+](=O)[O-])c1,1.5,3.6,4,-22,2%,-2.9,-4,1,0,-7.4
O=C(/C=C/c1ccco1)c1ccc(O)cc1,-0.6,?,-2,-16,nt,nt,-7,nt,nt,nt
COc1cc2cnc(-c3ccccc3)c(-c3ccc([N+](=O)[O-])cc3)c2cc1OC,0.7,nt,nt,nt,nt,1.5,-4,3,-8,-7.8
O=C(Nc1nc(-c2cccs2)c(C(=O)C(F)(F)F)s1)c1ccco1,-0.2,2.9,2,-5,-1%,1.5,13,-52,-71,-20
COC(C[C@@H]1O[C@H]1[C@H](O)COCc1ccccc1)OC,nt,-2.5,-8,-3,-6%,-5.5,nt,10,14,9.1
COC(=O)C1=CO[C@@H](O[C@@H]2O[C@H](CO)[C@@H](O)[C@H](O)[C@H]2O)C2C1CC(O)O[C@H]2C (stereo not given in full),1.5,nt,nt,nt,nt,0.0,-3,4,5,-6.7
CCn1c(SCc2ccc(OC)cc2)nnc1-c1ccncc1,-0.3,-0.8,-9,-4,5%,3.6,-13,5,1,-1.4
COc1ccc(-c2oc3ccc(-c4ccc(OC)nc4)cc3c2C#CC2(O)CCCCC2)cc1,1.3,0.3,2,41,nt,-2.2,14,7,17,-6.9
COc1cc(/C=C/c2ccc3c([N+](=O)[O-])cccc3n2)ccc1OCC(=O)O,-1.3,-1.5,8,0,15%,2.4,4,2,6,-3.8

# Later entries
SMILES,Bfl-1 A1 inh,RanGTP-Impb inh,Calb FLC,T cruzi repl,Vif A3G,AF4-AF9 inh,Beta apoptosis,rRNA inh HTS,rRNA inh HTS OD600,rRNA inh HTS RFP
Cc1sc2ncn(CC(=O)NCc3ccccn3)c(=O)c2c1S(=O)(=O)N1CCOCC1,-0.1,1.6,-6,-21,32%,nt,-2,nt,nt,nt
C#CCOCCOCCOCCNc1nc(N2CCN(C(=O)[C@H](C)n3cc(CCCN=C(N)N)nn3)CC2)nc(N2CCN(C(=O)[C@H](Cc3ccc(O)cc3)n3cc(CCO)nn3)CC2)n1,-1.7,-0.2,-10,5,nt,nt,-6,nt,nt,nt
O=C(Oc1ccccc1C(=S)N1CCOCC1)c1cccc([N+](=O)[O-])c1,-0.2,-1.8,-8,-2,-2%,5.5,-2,-4,8,-1.8
CC(C)OC(=O)/C(C#N)=C/c1cn(Cc2ccccc2)c2ccccc12,0.4,2.5,17,11,1%,6.9,1,10,2,-1.6
Cc1cc(Cl)ccc1OCC(=O)NCCOc1nc(N2CCOCC2)nc(N2CCOCC2)n1,0.2,5.2,4,-11,-4%,nt,2,nt,nt,nt

# Screens: PubChem, several laboratories

# Only part of the results is shown (hit frequency here may not be typical).
